Bioassay records as filed in PubChem BioAssay.
KCNQ2 inh: KCNQ2 potassium channel inhibitors, primary screen, cell-based, CHO-K1, FluxOR thallium flux, B-score (AID 2156); O88943; 20 min; stronger effect = lower value; only compounds with negative scores are shown here; some inactives read as strong as hits; B-score at 10 µM; actives 1.1% (n = 310,000);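 active = fluorescence ratio B-score at most minus 3 library SDs, with starting brightness B-score within 2 library SDs, cut at about -5.5 in these data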
Target sequence (O88943 whole entry, looked up): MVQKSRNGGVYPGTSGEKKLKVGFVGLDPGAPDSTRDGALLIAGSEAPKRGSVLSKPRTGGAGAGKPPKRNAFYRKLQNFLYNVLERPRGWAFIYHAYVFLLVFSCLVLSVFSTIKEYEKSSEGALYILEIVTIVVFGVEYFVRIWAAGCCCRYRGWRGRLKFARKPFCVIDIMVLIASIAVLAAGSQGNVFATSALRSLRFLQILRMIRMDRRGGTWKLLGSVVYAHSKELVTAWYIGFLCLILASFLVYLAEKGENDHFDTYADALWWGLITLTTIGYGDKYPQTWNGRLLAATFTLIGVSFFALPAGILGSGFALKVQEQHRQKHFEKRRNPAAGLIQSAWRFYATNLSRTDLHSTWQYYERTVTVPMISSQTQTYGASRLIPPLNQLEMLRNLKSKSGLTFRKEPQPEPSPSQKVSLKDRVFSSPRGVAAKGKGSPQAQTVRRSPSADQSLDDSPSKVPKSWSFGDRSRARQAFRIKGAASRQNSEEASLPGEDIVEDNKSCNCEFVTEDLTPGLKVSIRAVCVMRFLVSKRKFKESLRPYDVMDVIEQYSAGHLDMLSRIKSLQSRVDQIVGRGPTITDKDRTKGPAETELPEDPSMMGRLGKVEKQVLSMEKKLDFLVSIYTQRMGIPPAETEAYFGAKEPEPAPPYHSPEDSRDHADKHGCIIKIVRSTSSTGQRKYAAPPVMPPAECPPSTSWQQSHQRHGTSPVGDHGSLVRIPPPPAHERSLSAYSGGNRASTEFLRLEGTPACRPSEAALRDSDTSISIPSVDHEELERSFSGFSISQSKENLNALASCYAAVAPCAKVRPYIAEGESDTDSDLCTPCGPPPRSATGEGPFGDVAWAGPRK
KCNQ2 inh baseline: further read-out of KCNQ2 inh, marked with its call; B-score; measured here: initial fluorescence intensity artifact check;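 brightness before thallium and not channel activity; 0 = typical well and far values either way flag optical interference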
An asterisk follows results filed as active; i = inactive. Not all compounds are listed; rates above refer to the full screens.

SMILES	KCNQ2 inh	KCNQ2 inh baseline
COc1ccc(N(C(=O)c2cccc([N+](=O)[O-])c2)S(=O)(=O)c2cccs2)cc1	i	1.55
COc1ccc(C(CC(=O)N2CCCCC2)NC(=O)C(F)(F)F)cc1 (stereo not drawn)	i	0.04
N#Cc1c(-c2ccccc2F)cc(-c2cccnc2)nc1N	i	-0.01
O=S(=O)(NCc1ccccc1)c1ccc2c(c1)OCCO2	i	0.93
COc1ccc(OC)c(C(=O)c2coc3ccc(O)c(CN4CCOCC4)c23)c1	i	-0.68
CCS(=O)(=O)N1CCN(c2ccc(S(=O)(=O)N3CCOCC3)cc2)CC1	i	1.9
Cc1cccc(C(=O)Nc2cccc3cccnc23)c1	i	-0.4
OC(COc1cccc(OCC(O)CN2CCCC2)c1)CN1CCCC1 (stereo not drawn)	i	1.04
CCOCCCNC(=O)CNC(=S)N(Cc1ccc(C)cc1)Cc1ccco1	i	1.77
CCn1c(SCC(=O)Nc2ccc(N(C)C)cc2)nnc1-c1ccco1	i	0.19
COc1cccc(OC)c1OCCOc1ccccc1OC(C)C	i	-1.44
C#Cc1cccc(-n2nnc(C(C)=O)c2C)c1	i	0.07
CC(C)c1ccc(OCC(=O)NCc2ccccc2)cc1	i	0.06
Nn1c(-c2ccccc2)cc(-c2ccccc2)cc1=O	i	0.41
COCCn1nnnc1C(c1cc2cc(C)cc(C)c2[nH]c1=O)N1CCN(c2ccccc2F)CC1 (stereo not drawn)	i	2.06
Cc1ccc(-n2c(CCC(=O)O)ccc2-c2cccs2)cc1	i	-1.25
O=C(Nc1ccc(Cl)cn1)c1cccc2ccccc12	i	-0.74
NC(=O)c1c(NC(=O)Cn2nc(C(=O)O)c3ccccc3c2=O)sc2c1CCCC2	i	-0.01
CN1CCN(C(=O)CN(C2CCCCC2)S(=O)(=O)c2ccccc2)CC1	i	-1.01
COc1cccc(-c2cccc(NC(=O)C3CCN(Cc4cccc(C)n4)CC3)c2)c1	i	1.95
FC(F)(F)c1nnc(-c2ccccc2)nc1Oc1ccc(Cl)cc1Cl	-7.72*	-0.57*
Cc1c(Cl)c([N+](=O)[O-])nn1CC(=O)N1CCN(Cc2ccccc2)CC1	i	0.07
CCC(=O)NCCC(c1ccco1)c1ccccc1OC (stereo not drawn)	i	2.48
Oc1ccccc1/C=C/c1noc(-c2ccccc2O)n1	i	-2.02
O=C(CN1CCCC1)NC12CC3CC(CC(C3)C1)C2	i	-0.65
CCOC(=O)CC(NC(=O)CCc1c(C)nc2ncnn2c1C)c1ccc(C)cc1 (stereo not drawn)	i	0.23
Cc1noc(C(F)(F)F)c1C(=O)NNC(=O)c1ccccc1	i	-0.66
O=C(c1ccccc1F)N1CCCC(C(=O)N2CCN(c3ccccc3)CC2)C1 (stereo not drawn)	i	0.07
CC(=O)/C(=N\Nc1ccccc1)Sc1cccc2cccnc12	i	-0.76
CN(C)S(=O)(=O)c1cccc(NC(=S)NN=C(Cc2ccccc2)Cc2ccccc2)c1	i	-1.11
CCC(C)NC(=O)C(Cc1ccccc1)NS(=O)(=O)c1ccc2c(c1)CCC(=O)N2 (stereo not drawn)	i	0.52
CN1C(=O)NC(c2ccccc2)C2=C1CN(Cc1ccccc1)C2=O (stereo not drawn)	i	1.2
COc1ccc(-c2cc(C(=O)N3CC(C)CC(C)C3)c3ccccc3n2)cc1 (stereo not drawn)	-8.7*	1.4*
NCCN1CCN(CC(=O)N2c3ccccc3C(=O)Nc3cccnc32)CC1	i	-0.12
Cc1ccc(-c2nc(C(=O)NCCCN3CCOCC3)cc3c2[nH]c2ccccc23)cc1	i	0.22
CCOc1cc(C(=O)OCC(=O)Nc2ccc(SC(F)F)cc2)cc(OCC)c1OCC	i	3
O=C(/C=C/c1cccc([N+](=O)[O-])c1)NCCN1CCOCC1	i	1.22
Cc1ccc(OCC(=O)Nc2ccc(S(=O)(=O)N3CCOCC3)cc2)c([N+](=O)[O-])n1	i	-0.98
CCC1=C(OC(=O)N(CC)CC)N2C(=O)OC(=NCC3CC3)[C@]2(C)[C@H]2C1=CC[C@H]1C(=O)N(CC)C(=O)[C@H]12	i	0.22
CC(C)NC(=O)NC(=O)COC(=O)c1ncc(Cl)c(Cl)c1Cl	i	-0.7
CC(=O)Nc1ccc2c(c1)nc1n2CCSC1	i	-0.46
COc1cccc(C(=O)Nc2ccc(F)c(F)c2F)c1	i	-0.59
O=C(CC(O)(c1ccccc1)C(F)(F)F)c1cccs1 (stereo not drawn)	i	0.5
CC(C)CC(C(=O)NC1CCCC1)N(Cc1cccs1)C(=O)c1snc(C(N)=O)c1N (stereo not drawn)	-5.73*	-1.05*
C=CC[N+](C)(C)CCCNC(=O)/C=N/O	i	0.99
CC[n+]1c(/C=C/N(C)c2ccccc2)oc2ccc(F)cc21	i	1.98
COc1cc(OC)cc(C(=O)NC2CCN(C(=O)N3c4ccccc4Sc4ccccc43)CC2)c1	i	-0.17
COc1ccc(OC)c(S(=O)(=O)NNC(=S)Nc2ccc3c(c2)OCO3)c1	i	1.88
Cc1ccc(Cn2ncc3c(N4CCN(CC#N)CC4)ncnc32)cc1	i	2.04
CCOC(=O)c1ccccc1NC(=O)CSc1nc2ccccc2c(=O)[nH]1	i	-1.04
O=C(/C=C/c1ccc(O)cc1)c1ccccc1	i	-0.02
CC(O)CNc1ncnc2nc[nH]c12 (stereo not drawn)	i	0.33
Cc1ccc(C(=O)C2CCN(C(=S)NCCCOC(C)C)CC2)cc1	i	-0.37
O=C(Nc1ccccc1[N+](=O)[O-])C1(c2ccccc2)CCOCC1	i	-0.28
Cc1ccc(Cn2c(C)nc3c(c2=O)c2nc4ccccc4nc2n3Cc2ccco2)cc1	i	-0.2
CC1CCCC2(C1)NC(=S)c1c(sc3c1CCCC3)N2 (stereo not drawn)	i	2.43
CC1=N/C(=C\c2ccc([N+](=O)[O-])cc2)C(=O)N1c1ccc(F)cc1F	i	0.37
COCCN1C=C2C(=O)C(C)(OC(=O)CCc3ccccc3)C(=O)C=C2C=C1c1ccc(C#N)cc1 (stereo not drawn)	i	0.82
COC(=O)c1cc(C(=O)c2ccccc2)n2c(=O)/c(=C\N(C)C)sc12	i	0.92
O=C(CSc1nc(O)cc(=O)n1-c1ccccc1)NC1CCCCC1	i	0.88
(next part)
SMILES	KCNQ2 inh	KCNQ2 inh baseline
COc1ccc(/C(O)=C2/C(=O)C(=O)N(CCN3CCOCC3)C2c2ccc(C)cc2)cc1 (stereo not drawn)	i	0.47
Cc1ccc(C)c(S(=O)(=O)NCc2ccc(C(=O)N3CC(C)OC(C)C3)cc2)c1 (stereo not drawn)	i	-0.9
S=C(NCc1ccco1)NCC1CCCO1 (stereo not drawn)	i	1.42
COc1cc(NC(=O)C2=C(N3CCOCC3)/C(=C\c3ccc(N(C)C)cc3)CCC2)cc(OC)c1OC	i	-1.18
O=C1c2ccccc2C(=O)N1Cc1cnc(N2CCN(c3ccccc3)CC2)s1	i	-1.04
Cc1c(NC(=O)/C=C/c2cn(-c3ccccc3)nc2-c2ccccc2)c(=O)n(-c2ccccc2)n1C	i	-0.96
Cc1nnc(SCC(=O)N2CCCCC2)n1CC1CCCO1 (stereo not drawn)	i	1.72
CN(C)CC(C)(C)CNC(=O)C1CCN(Cc2ccccc2O)CC1	i	0.19
O=C(Cn1ncn2c(cc3ccccc32)c1=O)NCCCc1ccccc1	i	0.03
CCOCc1[nH]c(=S)[nH]c(=O)c1Cc1ccc(OCC(C)C)cc1	i	3.36
O/N=C(\c1ccccc1)C(O)c1ccccc1 (stereo not drawn)	i	-1.19
O=C(c1cccc(Cl)c1)N1CCN(C(=O)c2ccco2)CC1	i	0.26
Cc1ccc(/C=C/C(=O)N2CCN(Cc3ccccc3)CC2)o1	i	0.75
O=C(COC(=O)c1ccccn1)c1ccc([N+](=O)[O-])cc1	i	1.42
Cc1cc(Cl)c2oc(C(=O)N(C)Cc3cc(C)[nH]n3)c(C)c2c1	i	-1.13
Cc1cc2ncn(C(=O)c3c(-c4ccccc4Cl)noc3C)c2cc1C	i	-0.02
Cc1nn(CCC#N)c(NC(=O)c2ccc(Cl)cc2)c1P(=O)(Nc1ccc([N+](=O)[O-])cc1)N1CCOCC1 (stereo not drawn)	i	-0.29
CN(C)C(=O)c1ccc2c(c1)C1C3CCC(C3)C1C(c1ccccc1)N2 (stereo not drawn)	i	-1.39
Cc1nc(NC(=O)CN2CC(C)OC(C)C2)sc1C(=O)N(C)C (stereo not drawn)	i	0.02
CCOc1ccccc1C1CC(=O)Nc2cc3c(cc21)OCO3 (stereo not drawn)	i	-0.04
Cc1onc(-c2c(Cl)cccc2Cl)c1NC(=O)NNc1ccccn1	i	-0.81
COc1ccc(/C=C(/NC(=O)c2ccco2)C(=O)N2CCOCC2)cc1	i	0.91
CCN1CCN(P2(=O)C=C(c3ccccc3)OC(c3ccccc3)=C2)CC1	i	1.3
CCCC(=O)c1ccc(N2CCCC2)c(F)c1	i	-0.02
CCOC(=O)c1cnc2cc(C)nn2c1C	i	-0.81
COCCNC(=O)CN(C(=O)c1ccc(N2CCCC2)nc1)c1ccccc1	i	1.51
COc1ccc2c(C(=O)CN(C)C3CCCCC3)c[nH]c2c1	i	-0.67
C=CCN(c1ccccc1C(=O)NCC(=O)O)S(=O)(=O)c1ccccc1C	i	-1.39
COc1cc(/C=C(\C#N)c2nc3ccccc3[nH]2)cc(Br)c1OCc1ccc(F)cc1	i	-1.58
CCOc1ccccc1NC(=O)CCCNC(=O)c1ccc(Cl)cc1	i	-1.2
Cc1ccc2nc(NCc3ccccc3)[nH]c2c1	i	-1.63
CCc1ccccc1NC(=O)COc1ccc2c(=O)c(Oc3cc(C)ccc3C)coc2c1	i	-0.73
O=C(CN(Cc1ccccc1Cl)C(=O)c1ccc(CN2CCOCC2)o1)NCc1ccccc1	i	-0.82
CC(C1CC1)N(C(=O)c1ccccc1[N+](=O)[O-])c1ccccc1 (stereo not drawn)	i	-0.04
O=Cc1ccc(-n2nncc2-c2ccc([N+](=O)[O-])cc2)cc1	i	-1.29
COc1ccc(-c2c(C)nn3c(NC4CCCC4)cc(C)nc23)cc1OC	i	-0.57
O=C(COC(=O)/C=C/c1cccc(Cl)c1)NCCC1=CCCCC1	i	-0.33
CC(NC(=O)C[n+]1cccc(Br)c1)c1ccccc1 (stereo not drawn)	i	-0.45
COC(=O)C1C(=O)C(C(=O)c2ccccc2)C(=O)CC1(C)C (stereo not drawn)	i	-0.87
O=C(O)CC1=C(Nc2ccccc2)C(=O)N(c2ccccc2)C1c1ccc(Cl)cc1 (stereo not drawn)	i	0.15
O=S(=O)(c1ccccc1Cl)N1CCC(O)(c2ccc3c(c2)OCO3)CC1	i	0.88
Cc1cc(C)cc(OCC(=O)NNC(=O)CCN2C(=O)c3ccccc3C2=O)c1	i	-0.82
O=C(C1CCC(=O)N(C2CCCC2)C1)N1CCN(c2ccc(Cl)cc2)CC1 (stereo not drawn)	i	-0.81
Cc1ccc(Nc2nnc(SCC(=O)c3cc4ccccc4o3)s2)cc1C	i	-0.02
CC(C)O/C(=N\S(=O)(=O)c1ccc(Cl)cc1)c1ccccc1	i	0.27
COc1cc(C2c3c(n[nH]c3C)C(=O)N2c2ccc(Br)cc2)ccc1O (stereo not drawn)	i	0.58
Cc1ccc(N(C(=O)CCC(=O)Nc2cc(C)on2)C(C(=O)NC2CCCC2)c2ccccc2)cc1 (stereo not drawn)	i	0.45
Cc1cc(C)n(-c2ccc(NC(=O)C3CCN(Cc4cc(C)c(C)o4)CC3)cc2)n1	i	0.46
CSCCC(NS(=O)(=O)c1ccccc1F)C(=O)NNC(=O)c1csc(N2CCOCC2)n1 (stereo not drawn)	i	-0.48
CCN(CCCNC(=O)CN1C(=O)COc2ccccc21)c1cccc(C)c1	i	1.03
CC(C)OCC(O)Cn1c(N2CCCC2)nc2c1c(=O)n(C)c(=O)n2C (stereo not drawn)	i	1.82
CCOC(=O)c1c(C)sc2c1N(C(=O)CN(CC)CC)c1cc(Cl)ccc1S2	i	-1.86
CCn1c(SCC(=O)N2CCCC2)nnc1-c1ccc(N)cc1	i	-0.14
CC1CCCCN1C(=O)C1CCCCN1S(=O)(=O)c1cccc([N+](=O)[O-])c1 (stereo not drawn)	i	0.13
c1ccc2c(c1)CNc1ccccc1C2	i	-0.8

Filtered by structure: those above containing an aryl methoxy group (17)
SMILES	KCNQ2 inh	KCNQ2 inh baseline
COc1ccc(N(C(=O)c2cccc([N+](=O)[O-])c2)S(=O)(=O)c2cccs2)cc1	i	1.55
COc1ccc(C(CC(=O)N2CCCCC2)NC(=O)C(F)(F)F)cc1 (stereo not drawn)	i	0.04
COc1ccc(OC)c(C(=O)c2coc3ccc(O)c(CN4CCOCC4)c23)c1	i	-0.68
COc1cccc(OC)c1OCCOc1ccccc1OC(C)C	i	-1.44
COc1cccc(-c2cccc(NC(=O)C3CCN(Cc4cccc(C)n4)CC3)c2)c1	i	1.95
CCC(=O)NCCC(c1ccco1)c1ccccc1OC (stereo not drawn)	i	2.48
COc1ccc(-c2cc(C(=O)N3CC(C)CC(C)C3)c3ccccc3n2)cc1 (stereo not drawn)	-8.7*	1.4*
COc1cccc(C(=O)Nc2ccc(F)c(F)c2F)c1	i	-0.59
COc1cc(OC)cc(C(=O)NC2CCN(C(=O)N3c4ccccc4Sc4ccccc43)CC2)c1	i	-0.17
COc1ccc(OC)c(S(=O)(=O)NNC(=S)Nc2ccc3c(c2)OCO3)c1	i	1.88
COc1ccc(/C(O)=C2/C(=O)C(=O)N(CCN3CCOCC3)C2c2ccc(C)cc2)cc1 (stereo not drawn)	i	0.47
COc1cc(NC(=O)C2=C(N3CCOCC3)/C(=C\c3ccc(N(C)C)cc3)CCC2)cc(OC)c1OC	i	-1.18
COc1ccc(/C=C(/NC(=O)c2ccco2)C(=O)N2CCOCC2)cc1	i	0.91
COc1ccc2c(C(=O)CN(C)C3CCCCC3)c[nH]c2c1	i	-0.67
COc1cc(/C=C(\C#N)c2nc3ccccc3[nH]2)cc(Br)c1OCc1ccc(F)cc1	i	-1.58
COc1ccc(-c2c(C)nn3c(NC4CCCC4)cc(C)nc23)cc1OC	i	-0.57
COc1cc(C2c3c(n[nH]c3C)C(=O)N2c2ccc(Br)cc2)ccc1O (stereo not drawn)	i	0.58
